# KCNQ2 enhance: enhances the rat KCNQ2 potassium channel; AID 2239; B-score at 10 µM; CHO-K1 KCNQ2, FluxOR thallium flux fluorescence; stronger effect = higher value; 310,000 tested, 0.54% active; O88943;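 active = fluorescence ratio B-score at least 3 SD of library B-scores, with initial fluorescence B-score within 3 SD, cut at about 5.3 in these data; same plate scores as AID 2156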;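 note: B-score of peak minus minimum over baseline fluorescence ratio after K+ and Tl+ stimulus; positive B-score means potentiation of KCNQ2 with more thallium influx and brighter signal; only the inactives scoring about 0 or higher are listed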
# Target sequence (O88943 whole entry, looked up): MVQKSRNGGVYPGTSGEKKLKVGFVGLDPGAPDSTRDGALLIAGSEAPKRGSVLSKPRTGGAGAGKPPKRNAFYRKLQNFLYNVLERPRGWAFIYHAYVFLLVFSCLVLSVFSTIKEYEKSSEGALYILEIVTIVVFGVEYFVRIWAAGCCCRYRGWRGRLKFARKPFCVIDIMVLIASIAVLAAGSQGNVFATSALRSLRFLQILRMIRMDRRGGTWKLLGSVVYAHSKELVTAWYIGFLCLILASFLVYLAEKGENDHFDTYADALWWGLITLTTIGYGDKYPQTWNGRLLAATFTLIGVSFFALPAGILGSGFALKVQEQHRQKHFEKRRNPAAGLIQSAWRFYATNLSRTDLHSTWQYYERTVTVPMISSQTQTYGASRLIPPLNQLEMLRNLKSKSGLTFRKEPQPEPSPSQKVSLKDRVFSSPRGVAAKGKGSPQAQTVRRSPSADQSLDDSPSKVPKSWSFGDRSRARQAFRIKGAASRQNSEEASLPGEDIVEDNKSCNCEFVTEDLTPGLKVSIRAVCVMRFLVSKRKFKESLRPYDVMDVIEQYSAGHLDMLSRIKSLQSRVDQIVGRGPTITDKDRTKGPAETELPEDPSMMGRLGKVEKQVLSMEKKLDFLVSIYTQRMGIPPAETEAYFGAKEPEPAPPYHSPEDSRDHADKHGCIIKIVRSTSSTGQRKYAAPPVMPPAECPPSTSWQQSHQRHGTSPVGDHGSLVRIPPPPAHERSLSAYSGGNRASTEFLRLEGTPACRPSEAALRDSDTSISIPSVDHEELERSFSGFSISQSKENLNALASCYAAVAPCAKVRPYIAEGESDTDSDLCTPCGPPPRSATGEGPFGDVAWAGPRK
# KCNQ2 enhance baseline: second read-out of KCNQ2 enhance, no call of its own (marks repeat the call); B-score; compound at 10 µM; measured here: initial fluorescence intensity artifact check;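 brightness before thallium and not channel activity; 0 = typical well and far values either way flag optical interference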
# Starred values were filed as active, the others as inactive. The list is partial (hit frequency here may not be typical).
SMILES,KCNQ2 enhance,KCNQ2 enhance baseline
CC(=O)c1ccc(OC(=O)c2nc(-c3ccccc3)oc2C)cc1,0.08,-0.74
O=C(Cc1ccc([N+](=O)[O-])cc1)Nc1cc(C(F)(F)F)cc(C(F)(F)F)c1,0.88,-1.14
COc1cc(-c2nnc(SCC#CCO)o2)cc(OC)c1OC,1.42,-0.96
Cc1cc(=O)n2c(c1C#N)SC1CCCCC12O (stereo not given),0.09,-0.21
C1CCC(C23CC4CC(CC(C4)C2)C3)NC1 (stereo not given),1.7,1.22
Cc1cc(C)cc(C(=O)NCCCN2CCOCC2)c1,0.5,-2.13
N#C/C(=C/N1CCOCC1)c1ccccc1,0.02,-0.18
COc1ccccc1-c1cc(C(=O)NCCCN2CCOCC2)no1,0.01,-0.16
Cc1cc(C)n(CCC(=O)N/N=C/c2cccc([N+](=O)[O-])c2)n1,1.26,0.89
CCOC(=O)c1c(C)cccc1OCC(N)=O,0.01,1.05
O=C(C1CCCO1)N1CCN(C(=S)NC2CC2)CC1 (stereo not given),0.97,-1.01
O=C(O)c1cccc(COc2cccc3ccccc23)c1,1.67,-0.81
CN(C)CCNC(=O)c1scc2c1CCCC2,0.39,-0.13
CCCCn1nc(NS(=O)(=O)c2cccc3nonc23)c2cc3cccc(C)c3nc21,1.07,-0.19
COc1cc(/C=N/N=C(\N)c2nonc2N)ccc1O,1.32,0.72
O=C(c1ccccc1)N1CCn2c(nc3ccccc32)C1,1.1,0.67
COc1ccc(S(=O)(=O)N2N=C(C)Oc3ccccc3C2=O)cc1,1.77,0.02
Cn1c(CNc2nc(-c3ccccc3)cs2)nnc1SCC(=O)N1CCc2ccccc21,0.13,0.31
CCCn1c(SCC(=O)Nc2ccccc2C(=O)OC)nc2c1c(=O)n(C)c(=O)n2C,0.86,0.84
CCOC(=O)Nc1cc(C)c(Cl)cc1OC,0.61,-0.86
COc1ccc(S(=O)(=O)/C(C#N)=C/Nc2ccccc2F)cc1,0.48,1.57
Cc1csc(NC(=O)C2CCCCN2S(=O)(=O)c2ccccc2)n1 (stereo not given),0.27,0.25
CCOCCCn1c(=NC(=O)c2cccs2)c(C#N)cc2c(=O)n3ccccc3nc21,0.54,2.43
Cc1cc(/C=N\NC(=O)CC(=O)NC2CCCCC2)c(C)n1-c1cccc(Cl)c1Cl,4.7,-1.83
CN(C)Cc1c(O)ccc2oc(Cc3ccccc3)cc12,0.02,0.25
CC1=CCC2C(=O)N(c3ccccc3OC(=O)c3ccccc3F)C(=O)C2C1 (stereo not given),0.59,0.23
Cc1cc(Cl)c(S(=O)(=O)N2CCN(c3ccccc3)CC2)cc1OCC(N)=O,1.61,0.16
CN(C1CCCCC1)S(=O)(=O)c1ccc(C(=O)Nc2sc3c(c2C(N)=O)CC(C)(C)NC3(C)C)cc1,0.83,0.3
CN1CCN(C(=O)CNC(=O)Cc2ccc(Cl)cc2)CC1,0.03,0.62
O=C(c1cccc(S(=O)(=O)N2CCCC2)c1)N1CCN(c2ncccn2)CC1,0.01,-0.01
CC(O)CNc1cnccn1 (stereo not given),0.41,-0.14
CCC(Sc1nc2ncccc2[nH]1)C(=O)N1CCOCC1 (stereo not given),1.56,-0.45
CCOC(=O)NNC(=S)Nc1c(C)n(C)n(-c2ccccc2)c1=O,0.25,-0.07
COC(=O)c1ccccc1S(=O)(=O)N1CCC(C(=O)OC(C)C(=O)Nc2ccc(NC(C)=O)cc2)CC1 (stereo not given),0.85,1.8
COc1ccc(CNC(=O)c2ccc[nH]2)cc1Cl,0.02,0.16
CCN(CC)C(=O)c1sc2nc(-c3ccccn3)[nH]c(=O)c2c1C,1.39,0.26
COc1cccc(OC2OC3COC(C)(C)OC3C(O)C2NC(C)=O)c1 (stereo not given),1.03,-1.41
CCN(CC)Cc1ccccc1Sc1ccccc1,0.48,1.61
CN(C)c1cccc(NC2=CC(=[N+]3CCOCC3)CC(C)(C)C2)c1,0.19,1.97
O=C(COC(=O)Cc1c(F)cccc1Cl)Nc1nnc(-c2ccccc2)o1,4.32,-0.03
CC1CCN(S(=O)(=O)c2ccc(C(=O)NCc3cccnc3)cc2)CC1,1.3,-1.39
CC(NC(=O)CCc1nc2cc(S(=O)(=O)N3CCOCC3)ccc2n1C)c1ccc(S(N)(=O)=O)cc1 (stereo not given),1.08,1.14
Cn1c(=O)n(C)c2cc(NC(=O)COc3ccc(Cl)cc3)ccc21,2.88,0.21
Cc1ccc(C(=O)NC(=S)NCC2CCCO2)cc1Br (stereo not given),0.03,1.82
COc1ccc(CNC(=O)c2ccc(CS(=O)c3ccccc3)o2)cc1 (stereo not given),1,-0.14
Cc1nn(CC(=O)Nc2ccc(N3CCOCC3)cc2)c(C)c1Cl,1.47,-0.65
O=C(Nc1ccc(CN2CCOCC2)cc1)c1ccc(-c2ccc(Cl)cc2Cl)o1,0.49,-0.28
Cc1cc(Nc2ncc(Cl)cc2Cl)n[nH]1,0.76,-0.03
COCCC(=O)N1CCC(Oc2ccc(C(=O)NCCc3cn[nH]c3)cc2)CC1,0.61,0.62
CCOc1cc(CNCc2cc(OC)cc(OC)c2)ccc1OC,1.44,-0.53

# (cont.)
SMILES,KCNQ2 enhance,KCNQ2 enhance baseline
COc1ccc(NC(=S)N(CCO)Cc2cc3c(C)cc(C)cc3[nH]c2=O)cc1,0.34,-0.48
CCC1=NC(c2ccccc2Cl)N(O)C1(C)C (stereo not given),0.03,-0.16
O=[N+]([O-])c1ccc(N2CCN(CCOCCO)CC2)c([N+](=O)[O-])c1,1.02,0.15
CCNc1nc(=S)nc(NCc2ccccc2)[nH]1,1.23,1.12
COc1ccc(/C(C)=N/NC(=O)c2nnn(-c3nonc3N)c2CN(C)c2ccccc2)cc1,0.96,-0.5
CC(=O)c1ccc(NC(=O)c2ccc(COc3ccccc3[N+](=O)[O-])o2)cc1,0.05,-0.1
COc1ccc2oc(C(F)(F)C(F)(F)F)cc(=O)c2c1,2.09,0.7
COc1ccc(CN2CCNC(=O)C2CC(=O)N(C)C2CCOCC2)c(F)c1 (stereo not given),1.21,-0.14
CC(C)c1cc(C(=O)N/N=C/c2ccco2)n[nH]1,3.65,-2.46
CCc1ccc2[nH]c(=O)c(C(c3nnnn3CCOC)N3CCN(c4ccccc4F)CC3)cc2c1 (stereo not given),2.58,0.58
COC(=O)c1cc(C(=O)OC)cc(N2C(=O)CC(NNC(=O)c3ccccc3Cl)C2=O)c1 (stereo not given),0.9,-0.72
O=C(CCc1nnc2ccc(NCc3ccccc3Cl)nn12)NC1CCCC1,0.36,-0.62
Cc1nc2ncnn2c(C)c1Cc1cccc(C(F)(F)F)c1,0.45,-0.85
CC(C)C(=O)Nc1cccc(C(=O)Nc2nnc(C(C)(C)C)s2)c1,0.19,0.09
CCOC(=O)/C=C/C(=O)Nc1ccc(Oc2ccccc2)cc1,1.47,-0.1
COc1ccc(N=Cc2c[nH][nH]c2=O)cc1,0.28,1.02
CCc1ccc(NC(=O)COC(=O)CCCC2=NS(=O)(=O)c3ccccc3N2)cc1,0.77,1.95
CCCNC(=O)COC(=O)c1ccccc1C(=O)N(C)C1CCCCC1,0.8,1.45
COC(=O)c1cc(NC(=O)c2cc(C)oc2C)cc(C(=O)OC)c1,0.01,0.88
COc1ccc(CC(NC(C)=O)C(=O)NC2CCN(c3nc(C)cc(C)c3C#N)CC2)c(OC)c1 (stereo not given),0.6,-1.11
O=C1CC2(CCN(C(=O)COc3ccccc3)CC2)Oc2ccccc21,0.54,0.28
CC(=O)Nc1ccc(S(=O)(=O)NC2CCCCCC2)cc1,1.56,-1.78
O=C(O)COc1ccccc1/C=N/NC(=O)Cc1csc(Nc2cccc(C(F)(F)F)c2)n1,1.61,-0.02
O=S(=O)(Nc1nc2ccccc2nc1NCC1CCCO1)c1ccc(F)cc1 (stereo not given),0.15,-2.05
O=[N+]([O-])c1cccnc1NCCc1c[nH]c2ccccc12,0.36,0.1
NC(=O)CSc1nnc(-c2cccc(S(=O)(=O)N3CCCCC3)c2)o1,0.94,0.23
CC1(C)CC(=O)C=C(Nc2ccccc2F)C1,0.51,1.08
CCO[C@@H]1OC(C(N)=O)=C[C@H](c2ccc(Br)cc2)[C@H]1CCCO,0.81,0.24
O=C(NCc1ccccc1F)C1CCN(C(=O)Nc2ccc(F)cc2)CC1,1.46,1.72
NC(=O)c1ccc[n+](Cc2ccccc2)c1,1.39,-0.7
Clc1ccccc1COc1ccc(/C=N/n2cnnc2)cc1,1.47,-1.17
Cc1ccc(S(=O)(=O)Nc2ccc(Br)cc2/C=N/n2cnnc2)cc1,2.21,1.65
COc1ccc(S(=O)(=O)N2c3ccccc3OCC2CC(=O)O)cc1 (stereo not given),0.01,1.6
Cc1ccc(CC(=O)Nc2cccnc2)cc1,1.5,-1.42
CC(C)(C)c1ccc(C(=O)Oc2ccccc2CCC(=O)O)cc1,0.78,0.53
Cc1cccc(NC(=O)c2cccc(C(=O)Nc3cccc(C)c3)c2)c1,0.12,0.04
CN(CCNC(=O)C1CCN(S(=O)(=O)c2cnc[nH]2)CC1)Cc1ccccc1,0.08,0.52
COc1ccc(C(=O)C[n+]2cccc(C)c2C)cc1[N+](=O)[O-],2.06,0.83
CCOP(=O)(c1ccc(N(C)C)cc1)C(O)c1ccccc1 (stereo not given),0.15,2.84
CCC(C)Sc1nnc(CSc2nc3nc(C)cc(C)n3n2)o1 (stereo not given),0.35,-0.67

# Part of the list above, with values under each structure:
# Below each SMILES – KCNQ2 enhance, KCNQ2 enhance baseline
CC1(C)CC(=O)C=C(Nc2ccccc2F)C1
  0.51, 1.08
CCO[C@@H]1OC(C(N)=O)=C[C@H](c2ccc(Br)cc2)[C@H]1CCCO
  0.81, 0.24
O=C(NCc1ccccc1F)C1CCN(C(=O)Nc2ccc(F)cc2)CC1
  1.46, 1.72
NC(=O)c1ccc[n+](Cc2ccccc2)c1
  1.39, -0.7
Clc1ccccc1COc1ccc(/C=N/n2cnnc2)cc1
  1.47, -1.17
Cc1ccc(S(=O)(=O)Nc2ccc(Br)cc2/C=N/n2cnnc2)cc1
  2.21, 1.65
COc1ccc(S(=O)(=O)N2c3ccccc3OCC2CC(=O)O)cc1 (stereo not given)
  0.01, 1.6
Cc1ccc(CC(=O)Nc2cccnc2)cc1
  1.5, -1.42
CC(C)(C)c1ccc(C(=O)Oc2ccccc2CCC(=O)O)cc1
  0.78, 0.53
Cc1cccc(NC(=O)c2cccc(C(=O)Nc3cccc(C)c3)c2)c1
  0.12, 0.04
CN(CCNC(=O)C1CCN(S(=O)(=O)c2cnc[nH]2)CC1)Cc1ccccc1
  0.08, 0.52
COc1ccc(C(=O)C[n+]2cccc(C)c2C)cc1[N+](=O)[O-]
  2.06, 0.83
CCOP(=O)(c1ccc(N(C)C)cc1)C(O)c1ccccc1 (stereo not given)
  0.15, 2.84
CCC(C)Sc1nnc(CSc2nc3nc(C)cc(C)n3n2)o1 (stereo not given)
  0.35, -0.67

# Next section.
SMILES,KCNQ2 enhance,KCNQ2 enhance baseline
CCN(CC)c1ccc(/C=N/NC(=O)Nc2ccccc2)cc1,0.68,-1.3
Cc1cnc(C(=O)Nc2ccc(-n3cnnn3)cc2)cn1,0.15,-0.72
COc1ccc(NC(=O)COC(=O)c2c(-c3ccccc3)noc2C)cc1,1.04,-0.08
COCCn1c(SCc2nc(N)nc(Nc3ccccc3C)n2)nc2ccccc2c1=O,0.78,0.08
COc1cccc(C(=O)Nc2nc(-c3ccc4c(c3)OCO4)cs2)c1,0.29,0.03
C=CCOc1ccccc1NC(=O)CN1C(=O)CNC1=O,0.94,2.28
CCOc1ccc(NC(=O)c2nnn(CC(=O)Nc3ccccc3OC)c2N)cc1,1.84,2.36
COc1cnc(-c2ccccn2)nc1Oc1ccc(Cl)cc1,1.55,0.12
CCn1c(O)c(C(C#N)=C2N=c3ccccc3=N2)c2ccccc21,0.02,-0.52
CCOC(=O)c1c(-c2ccccc2Cl)csc1NC(=O)CSc1nc(C)cc(=O)[nH]1,1.12,0.36
CCN1/C(=C2/SC(=S)N(C)C2=O)C=Cc2cc(C)ccc21,0.67,0.38
O=c1c2cc(NC(=S)NCc3cccnc3)ccc2nc2n1CCCCC2,0.35,-1.25
Cc1cc(NC(=O)CN2CCOCC2)n(-c2nc3ccccc3s2)n1,0.59,-0.82
CCN(CC)S(=O)(=O)c1cccc(NC(=O)CN(C)Cc2cccc(OC)c2)c1,1.1,0.01
Cc1nc(NC(=O)c2ccco2)sc1-c1csc(Nc2ccc(Cl)cc2Cl)n1,0.01,1.41
CCOC(=O)C(C(=O)Nc1nccs1)C1CCCCC1 (stereo not given),0.99,-0.66
Nc1nc2nonc2nc1N1CCCCC1,1,-2.33
CCOC(=O)c1c(CN(CC)CC)oc2cc(Br)c(O)cc12,0.32,0.02
CC(=O)c1cc(N2CCC(C(=O)O)CC2)ccc1[N+](=O)[O-],1.13,-0.01
CCn1nc([N+](=O)[O-])c2c(-c3nc4ccccc4o3)c(N)n(CCCOC)c2c1=O,2.65,7.72
COc1ccc(CCNc2ccncn2)cc1OC,0.27,-1.23
O=C(Cn1nnc(-c2ccccc2F)n1)N1CCCCC1,0.13,0.26
CCCCOC(=O)Nc1nnc(C(C)C)s1,0.28,0.24
CC1Sc2ccc(S(=O)(=O)CCC(=O)NCc3cccs3)cc2NC1=O (stereo not given),0.52,1.45
COc1cccc(C(=O)N2CCN(Cc3nc(CC4CC4)no3)CC2)c1,0.31,0.7
COc1ccc(N2C(=O)CC(NCCNc3ccc([N+](=O)[O-])cn3)C2=O)cc1 (stereo not given),1.09,0.47
Cc1sc2ncnc(OCC(=O)N3CC(=O)Nc4ccccc43)c2c1C,1.03,0.8
CCOC(=O)C1=C(C)OC2(O)c3ccccc3C(=O)C12O (stereo not given),0.01,1.69
O=C(O)C(c1ccccc1)N1CCCC1 (stereo not given),0.57,1.89
O=S(=O)(/N=C(/Nc1ccccn1)c1ccccc1)c1ccc(F)cc1,0.92,-0.07
O=C(C1CCCN(S(=O)(=O)c2cccc3nonc23)C1)N1CCN(c2cccc(Cl)c2)CC1 (stereo not given),0.14,-0.18
